WNV NS2B-NS3 inh – inhibitors of WNV NS2B-NS3 protease, primary screen, biochemical, fluorogenic substrate; AID 577, 2007; fluorogenic substrate Ex360/Em465; stronger effect = lower value; 65,000 tested, 0.18% active; z-score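 (tested at a level between 10 and 100 µM)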;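 active means z-score at -3 or under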;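 further: score is relative to mean and spread of the compound wells of a plate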
Target sequence (P06935 1371-1501 limits assumed): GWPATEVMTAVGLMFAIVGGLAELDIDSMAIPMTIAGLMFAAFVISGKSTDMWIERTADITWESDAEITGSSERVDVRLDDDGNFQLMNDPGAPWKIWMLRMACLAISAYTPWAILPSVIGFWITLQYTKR
Target sequence (P06935 1502-1679 limits assumed): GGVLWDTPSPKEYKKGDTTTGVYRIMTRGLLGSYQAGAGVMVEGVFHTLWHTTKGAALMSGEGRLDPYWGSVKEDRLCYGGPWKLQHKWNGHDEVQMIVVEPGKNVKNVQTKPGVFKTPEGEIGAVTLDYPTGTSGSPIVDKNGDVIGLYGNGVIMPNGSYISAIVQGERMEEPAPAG
MT1-MMP reporter – inhibitors of MT1-MMP promoter transcription, cell-based, luciferase reporter, luminescence (AID 618); calls from a first round at 10 µM; hits with a dose series show EC50 in µM; 87,000 tested, 0.62% active; MT1-MMP promoter luciferase reporter cells, luminescence;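 active means over half of the reporter light lost at 10 µM or EC50 under 50 µM; inactive means the rest and hits that failed the dose series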;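 further: actives suppress MT1-MMP promoter-driven transcription so potencies describe inhibitors; HT1080 fibrosarcoma cells; overnight exposure; toxic or luciferase-blocking compounds were not removed from the actives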
Hsc70 – Hsc70 inhibitors, probe displacement, primary screen, biochemical, fluorescence polarization (AID 568); Heat shock cognate 71 kDa protein (Homo sapiens); Hsc70 fluorescence polarization, probe displacement; higher % means a stronger effect; strong numbers were not always called active; displacement, % at 20 µM; hits with a dose series show IC50 in µM; 83,000 tested, under 10 active;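 active means displacement above 50% without optical interference and an IC50 on retest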;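 further: ATPase domain with a fluorescein-tagged ATP probe; 0% = vehicle and 100% = excess ADP; read after one hour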
Starred values were filed as active, the others as inactive; i = inactive; · = not tested or not shown; + = active, no number.

Results follow in this order: WNV NS2B-NS3 inh | Hsc70 | MT1-MMP reporter
> CC1CCN(S(=O)(=O)c2ccc(S(=O)(=O)NCc3ccccc3)cc2)CC1
  · | 0.7% | i
> CC1(C)CC(C)(c2ccc(O)cc2O)N(c2ccc3ccccc3c2)C(=S)N1 (stereo unspecified)
  · | -4.6% | i
> CCCCc1cc(=O)oc2cc(OCC(=O)N(CC)CC)c(Cl)cc12
  -0.55 | 0.4% | i
> CCOc1ccc(OCC)c(NC(=O)CNS(=O)(=O)c2cccs2)c1
  0.73 | 0.0% | i
> Cc1ccccc1Cn1nc(C)c(NC(=O)c2noc3c2CC(C(C)(C)C)CC3)c1C (stereo unspecified)
  0.26 | 3.7% | i
> COc1ccc(CCNC(=O)CN2CCCc3ccccc32)cc1OC
  0.00994 | -7.6% | i
> CC1CN(C(=O)Cc2ccc(-c3ccccc3)cc2)CC(C)O1 (stereo unspecified)
  -0.57 | 1.3% | i
> CCOC(=O)NC1(C(F)(F)F)N=C(c2ccccc2)NC1=O (stereo unspecified)
  1.22 | 9.5% | i
> Cc1ccc(NC(=O)Cn2c(CCC(=O)O)ccc2-c2cccs2)cc1
  · | -2.2% | i
> O=C(C1=C(O)C(=O)N(CCN2CCOCC2)C1c1ccccc1)c1cccs1 (stereo unspecified)
  0.1 | -3.9% | i
> Fc1cccc(C2CC(c3cccc(Br)c3)Nc3nnnn32)c1 (stereo unspecified)
  1.83 | 0.1% | i
> COc1ccc(NCc2nnc(SCC(=O)Nc3cccc(C)c3)o2)cc1
  -0.21 | 1.4% | i
> Cc1ccc(-c2nc(=S)c3c(n2CCN2CCOCC2)CC(C)(C)OC3)cc1
  0.16 | -5.8% | i
> Cc1ccccc1NC(=O)Cn1c(=O)n(C)c2ccccc21
  -1.33 | -2.6% | i
> CC(C)CCNC(=O)CN(Cc1ccc2c(c1)OCO2)C(=O)CCC(=O)Nc1ccccn1
  0.41 | 1.0% | i
> CCOC(=O)c1c(NC(=O)Nc2cccc(Cl)c2)sc(C)c1C
  · | 3.7% | i
> Cc1ccc(N(C(=O)C2CCCO2)C2C=CS(=O)(=O)C2)cc1Cl (stereo unspecified)
  -0.03 | 1.2% | i
> CCn1c(SCC(=O)Nc2ccc3c(c2)c2ccccc2n3CC)nnc1-c1cnccn1
  -1.23 | -9.9% | i
> CCCCn1c(CN2CCN(c3ccccc3)CC2)nc2c1c(=O)n(C)c(=O)n2C
  0.05 | -5.1% | i
> CCCN1CC23C=CC(O2)C(C(=O)O)C3C1=O (stereo unspecified)
  -0.94 | 3.5% | i
> O=C(Nc1ccc2c(c1)OCO2)c1ccc[n+]([O-])c1
  · | 6.4% | i
> CC(C)=C1SC(N2CCOCC2)=NC1=O
  · | -3.6% | i
> Nc1c(C(=O)NCc2ccco2)sc2nc3c(cc12)C(=O)CCC3
  -0.02 | 0.4% | i
> COCCN1C(=O)N(c2cccc(C)c2)C(=O)C1CC(=O)Nc1ccc(F)cc1 (stereo unspecified)
  -0.27 | 5.0% | i
> CCc1c(C)nc(SC)n(CC#N)c1=O
  -0.25 | -8.3% | i
> COc1ccc(-c2cc(-n3c(C(F)(F)F)nc4ccccc43)n(CCC#N)n2)cc1
  -0.48 | -4.5% | i
> O=C(Cc1coc2cc3c(cc12)CCC3)OCc1cc(=O)n2c(n1)sc1ccccc12
  -0.62 | -3.9% | i
> O=C(CCn1c(=O)sc2ccccc21)NCc1cccs1
  -1.28 | -1.4% | i
> Cn1c(NC(=O)Cc2ccc(F)cc2)cc(=O)n(C)c1=O
  -1.02 | 0.2% | i
> COCCn1c(SCC(=O)N2CCCc3ccccc32)nnc1-c1ccco1
  -1.29 | -2.7% | i
> CCCc1cc(=O)[nH]c(SCc2ccc(C#N)cc2)n1
  -0.11 | 5.1% | i
> CCOCCCNCC(=O)NC1(C)C2CCC(C2)C1(C)C (stereo unspecified)
  1.64 | 3.2% | i
> Cc1nc2ccc3nc(NC(=O)C4COc5ccccc5O4)sc3c2s1 (stereo unspecified)
  1.2 | 0.4% | i
> CCn1c(=O)c2c(n3cnnc13)-c1ccccc1CC21CCCCC1
  -0.28 | 0.3% | i
> COc1cccc(C(=O)c2sc(NC(C)C)nc2N)c1
  0.33 | 1.2% | i
> O=C(Nc1cc(C(F)(F)F)ccc1N1CCOCC1)c1ccc2ccccc2n1
  -0.92 | -3.9% | i
> CCn1c(SCC(=O)c2ccc(Cl)cc2)nnc1C(C)C
  -0.73 | -4.8% | i
> CCOc1ccccc1C(=O)Nc1ccc2nc(N3CCN(c4ncccn4)CC3)cc(C)c2c1
  · | -16.9% | i
> CCCC1(C(=O)OC)NC(c2ccco2)C2C(=O)N(c3ccc(C)cc3)C(=O)C21 (stereo unspecified)
  -0.55 | 1.3% | i
> COc1ccccc1-n1c(C)cc(C=O)c1C
  · | -4.3% | i
> Cc1nc2c(ccc3nc(NC(=O)c4ccc5c(c4)OCCO5)sc32)s1
  -0.5 | -21.5% | +
> Brc1ccc(-c2nc(-c3cccnc3)no2)o1
  -0.87 | 2.0% | i
> COc1ccc(S(=O)(=O)N(CC(=O)NC(C)C)Cc2ccccc2)cc1
  · | 6.1% | i
> c1ccc(-c2noc(-c3ccncc3)n2)nc1
  -0.82 | -2.2% | i
> COc1ccccc1N1CCN(CC(=O)Nc2cc(C)nn2-c2nc(C)cc(C)n2)CC1
  -1.55 | -0.4% | ·
> Cc1ccc2[nH]c3c(c2c1)CN(C(=O)CN1CCCc2ccccc21)CC3
  0.74 | -2.4% | i
> CC1CCCCN1Cc1ccc(-c2nnn(CC(=O)NC3CCCCC3)n2)cc1 (stereo unspecified)
  · | -0.4% | i
> CCc1ccccc1N(CC(=O)O)S(C)(=O)=O
  -0.71 | 4.1% | i
> O=c1nc(N2CCOCC2)ccn1Cc1ccc(Br)cc1
  0.26 | -2.3% | i
> COc1ccc(NC(=O)C2CCCN(S(=O)(=O)c3cccc4nonc34)C2)cc1 (stereo unspecified)
  · | 0.5% | i
> COc1ccc(N2CCN(C(=O)Cn3c(=O)[nH]c4ccsc4c3=O)CC2)cc1
  0.79 | -5.8% | i
> CCOC(=O)COn1c(=O)c(C)[n+]([O-])c2ccccc21
  · | -2.2% | i
> COC(=O)c1ccc(COC(=O)CCc2nc(-c3ccccc3)c(-c3ccccc3)o2)cc1
  · | -6.1% | i
> CN(C)c1ccc(-c2n(C)c3ccccc3[n+]2C)cc1
  · | 7.0% | i
> Cc1cccc2sc(NC(=O)CN(C)S(=O)(=O)c3cccs3)nc12
  1.16 | 4.8% | i
> c1cc(-c2nnc3n2CCC3)[nH]n1
  -0.3 | -0.3% | i
> Cc1ccc(S(=O)(=O)N2CCCCC2)cc1C(=O)c1nccn1C
  2.45 | 7.7% | i
> O=C(NCc1ccccn1)c1cc(-c2ccccc2Cl)on1
  · | -0.3% | i
> CCC(C)(C)n1nnnc1C(c1cc2cc3c(cc2[nH]c1=O)OCO3)N1CCN(C)CC1 (stereo unspecified)
  1.05 | 0.4% | i
> O=S(=O)(c1ccc2nc(COc3ccccc3)[nH]c2c1)N1CCOCC1
  -0.42 | -0.2% | i

7 neighbouring compounds already listed, quoted:
Results follow in this order: WNV NS2B-NS3 inh | Hsc70 | MT1-MMP reporter
> CN(C)c1ccc(-c2n(C)c3ccccc3[n+]2C)cc1
  · | 7.0% | i
> Cc1cccc2sc(NC(=O)CN(C)S(=O)(=O)c3cccs3)nc12
  1.16 | 4.8% | i
> c1cc(-c2nnc3n2CCC3)[nH]n1
  -0.3 | -0.3% | i
> Cc1ccc(S(=O)(=O)N2CCCCC2)cc1C(=O)c1nccn1C
  2.45 | 7.7% | i
> O=C(NCc1ccccn1)c1cc(-c2ccccc2Cl)on1
  · | -0.3% | i
> CCC(C)(C)n1nnnc1C(c1cc2cc3c(cc2[nH]c1=O)OCO3)N1CCN(C)CC1 (stereo unspecified)
  1.05 | 0.4% | i
> O=S(=O)(c1ccc2nc(COc3ccccc3)[nH]c2c1)N1CCOCC1
  -0.42 | -0.2% | i

(next part)
Results follow in this order: WNV NS2B-NS3 inh | Hsc70 | MT1-MMP reporter
> COc1cccc(-c2nnc(-c3ccc(C(F)(F)F)cc3)o2)c1OC
  · | 1.7% | i
> Cc1ccccc1CN1CCN(CC(=O)NCc2ccc3c(c2)OCO3)C1=O
  -0.63 | 2.0% | i
> O=C(NCc1ccco1)C12CC3CC(C1)CC(C(=O)NCc1ccco1)(C3)C2
  -0.58 | -4.7% | i
> CCOC(=O)CNC(=O)CN1CCCN(S(=O)(=O)c2ccc(Br)s2)CC1
  -1.43 | 3.8% | i
> COc1cccc(-c2cc(C(=O)Nc3c(C)nn(Cc4ccccc4)c3C)no2)c1
  -0.07 | 6.8% | i
> O=C(Nc1nnc(SCc2ccc(F)cc2)s1)C1Cc2ccccc2CN1C(=O)c1ccco1 (stereo unspecified)
  · | -7.2% | i
> CCn1c(=O)c(=O)[nH]c2cc(C(=O)Nc3ccc(S(=O)(=O)N4CCCC4)cc3)ccc21
  1.15 | 2.1% | i
> CCOC(=O)c1cc(-c2ccc(C)cc2)n(CC(=O)NCc2ccco2)c1C
  -0.15 | 2.9% | i
> CCn1c(SCC(=O)c2ccccc2)nnc1-c1cnccn1
  -0.92 | 1.5% | i
> Cc1nnc(NC(=O)CN2C(=O)c3ccccc3S2(=O)=O)s1
  -0.97 | 5.1% | i
> COCCCNC(=O)CN(c1cccc(Cl)c1C)S(C)(=O)=O
  -0.55 | 0.5% | i
> O=C1CC(C(=O)N(CC2CCCO2)C(C(=O)NC2CCCCC2)c2ccncc2)CS1 (stereo unspecified)
  -1.1 | 7.5% | i
> O=C(NC1CCCCC1)C(c1ccncc1)N(CC1CCCO1)C(=O)C(F)(F)F (stereo unspecified)
  -0.33 | 2.7% | i
> O=S(=O)(NCc1ccncc1)c1ccc(S(=O)(=O)NCC2CCCO2)cc1 (stereo unspecified)
  -0.4 | 0.8% | i
> CCOC(=O)c1c(C)c(C(=O)Nc2ccccc2)c(C)n1CC
  -0.61 | -0.1% | i
> COc1ccc(CN=Cc2c(C(F)(F)F)[nH][nH]c2=O)cc1
  · | -0.1% | i
> Cc1ccc(Nc2nc(N)nc(CN3CCN(c4ccccc4)CC3)n2)cc1Cl
  -1.47 | -3.7% | i
> CC(=O)c1ccccc1OCC(O)CN1CCN(C(c2ccccc2)c2ccccc2)CC1 (stereo unspecified)
  0.59 | 2.3% | i
> CCCCNc1oc(-c2ccc(OC)cc2)nc1S(=O)(=O)c1ccccc1
  · | -7.2% | i
> COC(=O)C1=C(C)NC(C)=C(C(=O)OC)C1c1ccc2ccccc2n1
  · | -3.1% | i
> O=C(C1CCC1)N1CCc2cc(S(=O)(=O)Nc3ccc4c(c3)OCCO4)ccc21
  1.52 | -7.0% | i
> CC(=O)Nc1nc2c(c3c1c(=O)oc1ccccc13)CC(C)CC2 (stereo unspecified)
  -0.62 | -0.8% | i
> CN(C)CCCOC(=O)c1ccccc1Cl
  · | -4.3% | i
> COc1cc(N2CCCC2)c(OC)cc1/C=c1/sc2nc3ccccc3n2c1=O
  -0.73 | -123.6% | i
> O=C(NC1CCCC1)C(c1cccs1)N(Cc1ccco1)C(=O)c1csnn1 (stereo unspecified)
  0.63 | -1.7% | i
> C=CCNc1sc(C(=O)c2ccccc2)c(N)c1C#N
  · | -8.3% | i
> O=C1CCCC2=C1C(c1c(Cl)nc3sccn13)C1=C(CCCC1=O)N2
  -0.8 | 4.1% | i
> CCN(CC)C(=O)C1CC(=O)OC1(C)C (stereo unspecified)
  0.84 | 3.0% | i
> Cn1c(=O)oc2cc(S(=O)(=O)N3CCC(C(=O)NCC4COc5ccccc5O4)CC3)ccc21 (stereo unspecified)
  0.32 | 0.5% | i
> Cc1ccc(S(=O)(=O)N2CCC(C(=O)Nc3nnc(C4CCCC4)s3)CC2)cc1
  1.07 | -2.6% | i
> CC(=O)Nc1ccc(OCC(O)Cn2nc(C)c(Br)c2C)cc1 (stereo unspecified)
  · | -4.6% | i
> Cc1ccc2nc(NCCCNC(=O)c3cnccn3)c(C#N)cc2c1
  0.32 | -2.6% | i
> O=C(OCc1ccccc1)C1CCCN1C(=O)c1cccs1 (stereo unspecified)
  0.81 | 0.8% | i
> CCN(CC)CCOC(=O)c1c(C)oc2ccc(O)cc12
  -0.82 | 3.1% | i
> Cc1cccc2cc(C(c3nnnn3CC3CCCO3)N3CCc4ccccc4C3)c(=O)[nH]c12 (stereo unspecified)
  0.48 | 3.9% | i
> Cc1ccc(NC(=O)COc2ccc(-n3cnnn3)cc2)cc1C
  · | 0.7% | i
> O=C(c1ccccc1F)N1CCc2ccccc21
  0.33 | -3.9% | i
> CC1=C(C(=O)OCc2ccccc2)C(c2ccc(C)o2)C2=C(CCCC2=O)N1 (stereo unspecified)
  -1.12 | -1.0% | i
> CCn1ccc(C(=O)Nc2ccc(Cl)cn2)n1
  0.37 | 0.7% | i
> O=C(COc1ccc(S(=O)(=O)N2CCOCC2)cc1)Nc1ccc(Cl)c(C(F)(F)F)c1
  0.6 | -2.7% | i
> CN(CCNC(=O)C1CC(=O)N(C2CCCC2)C1)Cc1ccccc1 (stereo unspecified)
  -0.02 | 1.5% | i
> COc1cccc(N=C2SC(C(=O)Nc3ccccc3F)CC(=O)N2C)c1 (stereo unspecified)
  -0.26 | 3.1% | i

Bioassay records as filed in PubChem.

The list is partial, so the mix of outcomes need not match the whole.
